# High-throughput results from PubChem.
# RanGTP-Impb inh – inhibitors of RanGTP-importin-beta interaction, primary screen, biochemical, FRET, CFP-Ran, YFP-importin-beta, homogeneous; cell-free CFP-Ran/YFP-importin-beta FRET ratio; inhibition, % (no concentration beside the values); actives 1.1% (n = 300,000); AID 2216, 2009;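 active = most replicates above 15%; inconclusive = exactly half above 15%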;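 note: 0% = DMSO wells and 100% = Ran loaded with GDP instead of GTP; wells of about 40 µL received 100 nL stock; the first replicate is given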
# Calb FLC – C. albicans growth inhibition with fluconazole, primary screen, CaCi-2 strain, Alamar Blue fluorescence; C. albicans CaCi-2 (fluconazole-resistant clinical isolate) + fluconazole, 48 h; growth inhibition, % (no concentration beside the values); actives 0.57% (n = 300,000);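 active = most replicates above 75%; inconclusive = exactly half above 75%; inactive = most below 75%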;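 note: all wells also contain fluconazole at 8 µg/ml as a sub-toxic cotreatment; 0% = median of DMSO wells and 100% = median of geldanamycin control wells; wells of about 8 µL received 7.5 nL stock; the first replicate is given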
# Beta apoptosis – inhibitors of cytokine-induced beta cell apoptosis, primary screen, luminescence; INS-1E cytokine-induced death, ATP luminescence, 48 h; percent of positive-control rescue, neutral wells zero; protection from apoptosis, % (no concentration beside the values); actives 0.8% (n = 300,000); AID 435005, 2010;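 active = all replicates at 75% or more, or half of them and the mean; inconclusive = half reach 75% but not the mean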;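 note: 0% = cytokine-treated negative control wells and 100% = positive control rescue; higher means more ATP so stronger rescue from cytokine killing; wells of about 40 µL received 100 nL stock; the first replicate is given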
# rRNA inh HTS – reduced GFP signal of wild-type E. coli, primary screen, bacterial rRNA inhibitor project, GFP/RFP fluorescence, OD600, single point; E. coli WT GFP vs humanized-ribosome RFP mutants, 24 h; active compounds read low; DMSO median 0, no signal -100; GFP signal change (wild-type ribosome), % (no concentration beside the values); actives 1.6% (n = 350,000);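 active = significant combined selectivity score with lowered wild-type GFP, culture density cut under 30%, mutant RFP and density less affected; inactive = any of these conditions unmet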; note: one replicate is shown; some compounds called inactive have numbers as strong as hits
# T cruzi inh – inhibitors of intracellular T. cruzi growth, primary screen, luminescence, NIH3T3 host cells. actives 1.4% (n = 300,000). inhibition, % (concentration not given with the values). T. cruzi beta-gal in NIH3T3, 90 h;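 active = mean inhibition across valid replicates above about 55%, limit read from the data; inconclusive = mean below that limit but half or more replicates reach it; inactive = mean below it, under half of replicates reach it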;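 note: signal also drops with host cell toxicity which is not excluded here; 0% = plate median of DMSO wells and 100% = zero luminescence signal; higher percent means less beta-gal luminescence so fewer parasites; stock transfer was 50 nL into about 50 µL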
# A1 inh – caspase 3/7 activation in MEF A1-2A-BIM cells, primary screen, A1 inhibitor project, cell-based, luminescence, HTS. caspase activation, % (test concentration not listed). Caspase-Glo 3/7 luminescence, 3 h; percent of clofoctol response, vehicle zero. actives 0.066% (n = 330,000). AID 2462, 2010;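 active = over half of replicate activation scores above 10%, or exactly half above 10 with the replicate mean above 10; inconclusive = replicate mean below 10 yet half the replicates above 10; inactive = over half of replicates below 10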;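 note: wells of about 30 µL received 50 nL stock; many hits fall short of the cut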
# MLL AF4-AF9 inh – inhibitors of AF4 peptide binding to AF9, primary screen, biochemical, AlphaScreen, biotin-AF4 peptide, FLAG-AF9, single point | inhibition, % at 10 µM | Protein AF-9 (Homo sapiens), P42568 | actives 0.47% (n = 350,000);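 active = every replicate reaching a set inhibition limit, whatever the replicate mean, cut at about 25% in these data; inconclusive = mean inhibition reaches that limit but some replicates miss it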;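 note: 0% = plate neutral control median and 100% = total signal loss; the record names both 10 and 1 µM as test concentration; the first replicate is given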
# Target sequence (P42568 whole entry, looked up): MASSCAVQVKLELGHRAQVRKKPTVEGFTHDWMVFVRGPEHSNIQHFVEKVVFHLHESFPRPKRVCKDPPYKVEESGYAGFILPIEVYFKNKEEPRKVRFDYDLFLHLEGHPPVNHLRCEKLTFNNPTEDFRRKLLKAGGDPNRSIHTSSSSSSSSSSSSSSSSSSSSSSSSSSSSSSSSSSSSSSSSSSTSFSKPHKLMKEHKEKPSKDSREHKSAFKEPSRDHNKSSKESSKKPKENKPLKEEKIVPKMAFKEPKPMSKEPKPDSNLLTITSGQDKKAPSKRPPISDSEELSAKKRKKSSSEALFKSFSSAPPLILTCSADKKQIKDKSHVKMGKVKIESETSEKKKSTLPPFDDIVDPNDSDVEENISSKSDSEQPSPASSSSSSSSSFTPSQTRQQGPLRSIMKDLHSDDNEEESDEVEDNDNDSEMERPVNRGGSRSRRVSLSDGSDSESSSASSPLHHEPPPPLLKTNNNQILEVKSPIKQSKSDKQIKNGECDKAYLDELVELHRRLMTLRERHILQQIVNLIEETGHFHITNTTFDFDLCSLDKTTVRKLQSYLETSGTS
# Vif A3G – inhibitors of Vif binding to APOBEC3G peptide, primary screen, biochemical, TR-FRET, GST-Vif 1-94, biotin-A3G peptide, dose response retest (AID 1117319); Virion infectivity factor (Human immunodeficiency virus type 1 group M subtype B (isolate …; TR-FRET GST-Vif / biotin-A3G peptide binding; higher % means a stronger effect; test concentration not given here; strong numbers were not always called active; inhibition, %; hits with a dose series show IC50 in µM; actives 0.57% (n = 260,000);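 active = above the screen mean plus three standard deviations and confirmed in dose response; inconclusive = results disagree or hit not tested in dose response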;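 note: Vif residues 1-94 fused to GST binding biotinylated APOBEC3G peptide 110-148; 0% = full assay without inhibitor and 100% = GST in place of GST-Vif; retest series ran down from 100 µM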
# rRNA inh HTS OD600 – second read-out of rRNA inh HTS, no call of its own (marks repeat the call); OD600 change, %; measured here: OD600 growth;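 optical density of the mix in the first replicate; 0 = DMSO median and -100 = no signal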
# rRNA inh HTS RFP – further read-out of rRNA inh HTS, marked with its call; RFP signal change, %; measured here: RFP humanized mutant strains;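 first replicate; 0 = DMSO median and -100 = no signal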
# An asterisk follows results filed as active; ? = inconclusive; . = not tested or not shown; & = joins results of further samples. Some of the compounds tested; the hit share may differ from the screen's.
Structure	RanGTP-Impb inh	Calb FLC	Beta apoptosis	rRNA inh HTS	rRNA inh HTS OD600	rRNA inh HTS RFP	T cruzi inh	A1 inh	MLL AF4-AF9 inh	Vif A3G
CCC(C)N(CCNC(=O)c1ccc(NC2=NC3CS(=O)(=O)CC3S2)cc1)Cc1ccco1 (centres undefined)	?	1	-2	3	6	5.4	-10	0.4	9.0	.
CC(NC(=O)COC(=O)CCNC(=O)c1ccco1)C12CC3CC(CC(C3)C1)C2 (centres undefined)	.	-3	2	.	.	.	.	0.2	.	6%
COc1ccccc1CNC(=O)Cc1csc(NC(=O)Nc2ccccc2OC)n1	-1.9	-2	5	-4	-15	7.8	-6	0.9	0.7	-4%
O=C(COC(=O)/C=C/C(=O)OCC(=O)NC12CC3CC(CC(C3)C1)C2)NC12CC3CC(CC(C3)C1)C2	1.5	-3	-19	.	.	.	-10	0.4	.	22%
CC(C)(C)C1CCC(OCC(O)CN2CCN(c3ccccc3)CC2)CC1 (centres undefined)	3.3	-26	-5	.	.	.	0	0.3	.	-4%
COc1ccc(OC)c(-n2c(C)cc(C=O)c2C)c1	6.0	-6	-3	-10	5	2.5	-7	-0.6	2.1	4%
Nc1nnc(SCC(=O)NC2CCCCCC2)s1	-0.1	-12	-12	18	7	3.9	0	1.9	-0.5	4%
Cc1ccc(NC(=O)CCSc2nc(C)cc(C)n2)cc1	-0.4	2	-5	.	.	.	-2	0.1	.	2%
Cc1c(-n2c(SCC(N)=O)nc3ccccc3c2=O)c(=O)n(-c2ccccc2)n1C	1.4	-4	-3	14	15	2.4	-2	0.7	-1.7	13%
CCOc1ccc(NC(=O)CN(C)C(=O)c2ccc(OCC3CCCO3)cc2)cc1OCC (centres undefined)	3.6	-1	1	6	8	-0.7	9	0.2	-12	.
CC1=NN(CCC#N)C(=O)/C1=C/c1ccc(N(C)C)cc1	-9.4	-12	-3	22	-6	-0.9	-4	1.6	4.0	.
COC(=O)COc1ccc(/C=N/NS(=O)(=O)c2ccccc2)cc1	-1.6	-5	-8	4	6	-4.8	-8	0.5	0.4	0%
CCCCCC(=O)Nc1ccc(-c2csc(N)n2)cc1	-2.2	-48	1	-7	3	4.7	21	-0.5	3.9	3%
Cc1nnc2sc(-c3ccccn3)nn12	6.5	-7	-2	.	.	.	-11	-0.3	.	-4%
CCOc1cccc(C(=O)NC(=S)Nc2ccc(N3CCCC3)cc2)c1	-3.9	-5	8	.	.	.	-5	-0.1	.	3%
CNc1ccc(/C=C2\COc3ccccc3C2=O)cc1[N+](=O)[O-]	2.3	7	-5	.	.	.	11	-0.3	.	-1%
O=C(NCc1ccco1)/C(=C/c1ccccc1)NC(=O)c1ccco1	-1.2	-2	-2	5	13	0.6	12	-0.1	0.1	.
CCOc1ccc(NC(=O)C2CCCN(c3nn4c(=O)cc(C)nc4s3)C2)cc1 (centres undefined)	6.0	-12	-1	1	17	-1.0	-7	0.0	-0.5	.
COc1ccc(-c2c3c(=O)n(C)c(=O)n(C)c3cn2-c2ccccc2O)cc1	6.2	14	7	3	-1	6.4	-1	-0.4	5.3	2%
CCOc1ccc(CN2CCC(C(=O)N3CCN(c4ccccc4F)CC3)CC2)cc1OC	1.5	22	-3	.	.	.	69*	0.4	.	-3%&-5%

Structure	RanGTP-Impb inh	Calb FLC	Beta apoptosis	rRNA inh HTS	rRNA inh HTS OD600	rRNA inh HTS RFP	T cruzi inh	A1 inh	MLL AF4-AF9 inh	Vif A3G
COc1ccc(/C=C(/C#N)C(=O)Nc2cccc([N+](=O)[O-])c2)cc1C(=O)O	0.7	-14	.	5	14	0.6	-5	0.0	0.8	.
O=C(OCc1ccc([N+](=O)[O-])cc1)c1cc([N+](=O)[O-])ccc1N1CCOCC1	1.7	22	4	-6	0	-1.6	17	-0.1	2.8	7%
COc1ccc(-n2nc(C(=O)NCC(=O)NCCCN3CCOCC3)c3ccccc3c2=O)cc1	0.6	-1	-1	1	2	0.4	-8	1.0	0.0	.
CC1CCC(C(C)C)C(OC(=O)C[n+]2cccc(C(N)=O)c2)C1 (centres undefined)	-1.1	4	-7	.	.	.	-9	?	.	26%
O=C1c2ccc([N+](=O)[O-])cc2NC(c2ccco2)N1/N=C/c1ccco1 (centres undefined)	-0.6	-1	2	6	15	10	6	-3.2	-1.4	.
O=C(COc1ccccc1)NC1CCCCCCC1	-6.3	3	-2	.	.	.	6	-0.4	-0.5	.
O=C(Nc1cccc(Cl)c1)N1CCN2C(=O)c3ccccc3C12c1ccccc1 (centres undefined)	-0.7	14	2	.	.	.	37	0.6	5.8	5%
O=C(CCn1c(=O)oc2ccccc21)Nc1ccc(N2CCOCC2)cc1	-4.8	0	2	-4	3	-0.5	-5	0.4	-2.5	3%
CC(=O)N1[C@H](C)C=C[C@]1(Cc1ccccc1)C(=O)NCCc1c[nH]c2ccccc12	-5.8	8	-9	.	.	.	3	-0.1	.	.
CC(C)CC1(C)NC(=O)N(CC(=O)Nc2cccc(S(=O)(=O)N(C)c3ccccc3)c2)C1=O (centres undefined)	0.9	3	-1	-30	-36	-4.9	0	-0.2	-0.9	24%
N#Cc1ccccc1NC(=O)COC(=O)c1cccs1	.	.	-1	2	1	1.7	.	-0.1	-6.4	-9%
COc1ccccc1OCC(=O)Nc1cccc(C(=O)N2CCOCC2)c1	-1.3	2	-6	8	3	5.6	-6	-0.9	-62	4%
COc1ccc(Cc2nnc(SCC(=O)NCC3CCCO3)o2)cc1 (centres undefined)	1.9	-13	-6	10	10	1.6	-27	-1.4	-30	19%
Cc1oc(-c2cccs2)nc1CS(=O)CC(=O)NCCCOC(C)C (centres undefined)	4.9	-13	-2	.	.	.	-16	0.2	.	-2%
Cc1cc(C)c(NC(=O)CS)c(Cl)c1	-0.9	-2	-14	28	28	3.8	-4	-0.6	-1.0	-8%
CC1CCCCC1NC(=O)CSc1nncn1N (centres undefined)	-1.7	-17	-3	14	7	1.3	-25	-0.4	-2.4	.
CCCN1C2CCCC1CC(NC(=O)c1cccc(OC)c1)C2 (centres undefined)	?	-1	-3	6	8	-1.0	0	-0.2	-26	.
CN(C)C(CN=C1NS(=O)(=O)c2ccccc21)c1ccco1 (centres undefined)	-0.8	-3	-1	-1	6	1.3	-12	-1.1	-0.9	24%
COC(=O)C1=CN(Cc2ccccc2)C=C(C(=O)OC)C1c1ccc(O)c(OC)c1	28*	10	.	9	4	2.3	19	0.3	1.1	.
CCC(C(=O)Nc1ncn[nH]1)(C(F)(F)F)C(F)(F)F	-1.0	16	-2	.	.	.	-1	0.2	.	-1%

# Marked active in RanGTP-Impb inh (from the list above):
mol | RanGTP-Impb inh | rRNA inh HTS | rRNA inh HTS OD600 | rRNA inh HTS RFP | A1 inh | MLL AF4-AF9 inh | Vif A3G
COC(=O)C1=CN(Cc2ccccc2)C=C(C(=O)OC)C1c1ccc(O)c(OC)c1 | 28* | 9 | 4 | 2.3 | 0.3 | 1.1 | .

# Following part.
Structure	RanGTP-Impb inh	Calb FLC	Beta apoptosis	rRNA inh HTS	rRNA inh HTS OD600	rRNA inh HTS RFP	T cruzi inh	A1 inh	MLL AF4-AF9 inh	Vif A3G
CC1(C)COC(c2cc([N+](=O)[O-])ccc2Cl)=N1	-0.3	1	-10	.	.	.	5	0.2	.	3%
COc1ccc(-c2noc(CCC(=O)Nc3cccnc3)n2)cc1	2.3	.	-2	1	4	-1.9	0	0.9	-2.4	.
Cc1ccc(CCN2CC(C(=O)NCc3ccco3)CC2=O)cc1 (centres undefined)	-0.4	-4	-7	.	.	.	0	-1.4	.	14%
COc1ccccc1NS(=O)(=O)c1cccc(C(=O)NNC(=O)c2ccc(NC(C)=O)cc2)c1	.	.	-1	2	-1	-1.7	.	0.2	-3.9	-7%
COc1ccc(OCCCn2c(=O)oc3ccccc32)cc1	0.6	6	2	.	.	.	-10	0.2	.	-2%
O=C(NNC(=S)NC1CC2CCC1C2)c1ccc(Cl)cc1 (centres undefined)	4.0	?	-6	-25*	-7.0*	-4.4*	-38	0.9	.	13%
Cc1cccc(-c2nnc(SCC(=O)NC3CC3)n2C)c1	-0.9	17	0	11	7	-0.7	-2	0.8	-1.7	-8%
COc1ccc(-c2cc(O)cc(O)c2)cc1	2.6	-22	-5	.	.	.	-15	-6.7	.	26%
Cc1ccc(NC(=O)CN2CCOCC2)cc1S(=O)(=O)N1CCCCC1	.	.	-1	9	-1	2.4	.	0.1	-0.5	-1%
CC1(C)SC(=S)N(Cc2ccc3c(c2)OCO3)C1N(O)C(=O)NC1CCCCC1 (centres undefined)	2.7	2	4	.	.	.	15	1.0	.	0%
CC(=O)c1cc(C#N)c(NCc2ccccc2)nc1C	0.5	5	.	9	-1	1.3	13	1.3	1.8	-5%
O=S1(=O)[C@H]2C[C@@H]3C=C[C@@]2(CN1Cc1cccc(C(F)(F)F)c1)O3	3.4	-7	5	10	7	1.0	-15	-1.0	-2.9	.
CN1CCC(N(C)C(=O)c2cccc(S(=O)(=O)N3CCc4ccccc43)c2)CC1	.	.	-2	3	5	0.8	.	-0.7	-10	6%
Cc1cccc(NC(=S)NCC23C=CC(O2)C2C(=O)N(c4ccc(Cl)cc4)C(=O)C23)c1 (centres undefined)	-4.0	-8	-4	.	.	.	-3	-0.4	.	2%
CCOc1ccc(-n2nnnc2SCC(=O)c2ccccc2)cc1	-2.5	2	-9	.	.	.	-8	-1.4	.	3%
Cc1ccc(N=Cc2cccc(O)c2O)c(C)c1	-4.0	18	45	.	.	.	?	0.2	.	?
CC(=O)NCCn1c(SCC(=O)NCCc2ccc(S(N)(=O)=O)cc2)nc2ccccc2c1=O	1.7	-5	-8	26	10	0.8	-8	0.5	-1.0	.
O=S1(=O)N=C(N(CCO)/N=C/c2ccccc2F)c2ccccc21	-2.3	7	5	-21*	-9.0*	2.3*	3	0.0	-9.0	.
C=CCNC(=O)/C(C#N)=C/c1cn(-c2ccccc2)nc1-c1ccc(OC)c([N+](=O)[O-])c1	1.8	9	4	.	.	.	12	-0.9	.	8%
CC1CCCCC1NCC(=O)Nc1ccccc1C(=O)Nc1ccccc1 (centres undefined)	.	.	5	-1	-7	1.2	.	0.0	-3.8	-13%
